High-throughput results (PubChem)
Hsc70: small molecules displacing fluorescent ligand from Hsc70 – biochemical, fluorescence polarization, primary screen (AID 568) | 83,000 tested, under 10 active | Hsc70 fluorescence polarization, probe displacement; higher % means a stronger effect; strong numbers were not always called active | displacement, % at 20 µM; hits with a dose series show IC50 in µM;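 active = displacement above 50% without optical interference and an IC50 on retest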;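 also: ATPase domain with a fluorescein-tagged ATP probe; 0% = vehicle and 100% = excess ADP; read after one hour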
WNV NS2B-NS3 inh: blocks West Nile virus NS2B-NS3 protease activity; WNV NS2B-NS3 protease, fluorogenic substrate Ex360/Em465; stronger effect = lower value; 0.18% of 65,000 active; AID 577; z-score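 (tested at a level between 10 and 100 µM)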;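 active = z-score at -3 or under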;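 also: score is relative to mean and spread of the compound wells of a plate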
Target sequence (P06935 1371-1501 limits assumed): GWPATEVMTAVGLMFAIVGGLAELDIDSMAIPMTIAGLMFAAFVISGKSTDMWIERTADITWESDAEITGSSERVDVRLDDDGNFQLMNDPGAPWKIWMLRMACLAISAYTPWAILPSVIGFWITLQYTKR
Target sequence (P06935 1502-1679 limits assumed): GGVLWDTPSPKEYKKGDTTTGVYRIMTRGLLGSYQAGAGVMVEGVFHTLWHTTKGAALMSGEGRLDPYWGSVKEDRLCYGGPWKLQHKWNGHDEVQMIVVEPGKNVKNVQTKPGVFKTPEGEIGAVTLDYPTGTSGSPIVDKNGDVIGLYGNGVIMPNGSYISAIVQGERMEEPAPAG
MT1-MMP reporter: inhibitors of MT1-MMP promoter transcription, cell-based, luciferase reporter, luminescence (AID 618); MT1-MMP promoter luciferase reporter cells, luminescence; calls from a first round at 10 µM; hits with a dose series show EC50 in µM; 0.62% of 87,000 active;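 active = over half of the reporter light lost at 10 µM or EC50 under 50 µM; inactive = the rest and hits that failed the dose series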;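 also: actives suppress MT1-MMP promoter-driven transcription so potencies describe inhibitors; HT1080 fibrosarcoma cells; overnight exposure; toxic or luciferase-blocking compounds were not removed from the actives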
* = called active by the depositor.

For O=C(CSc1nc2c(cnn2-c2ccc(F)cc2)c(=O)[nH]1)N1CCOCC1 the results were Hsc70 -1.0%, WNV NS2B-NS3 inh 2 and MT1-MMP reporter inactive.
Cn1nc(CC(=O)Nc2ccc(N3CCN(C(=O)OC(C)(C)C)CC3)cc2)c2ccccc2c1=O was read as Hsc70 -0.1%, WNV NS2B-NS3 inh 0.68 and MT1-MMP reporter inactive.
For O=C(NC1CCCCC1)c1nc2c(nnn2Cc2ccccc2Cl)c(=O)[nH]1 the results were Hsc70 1.6%, WNV NS2B-NS3 inh -0.47 and MT1-MMP reporter inactive.
Screening CCCNS(=O)(=O)c1ccc(OCC(=O)N2CCOCC2)cc1 returned Hsc70 2.6% and MT1-MMP reporter inactive.
For COC(=O)c1cccc(NC(=O)c2cccc(OC)c2)c1 the results were Hsc70 -0.9%, WNV NS2B-NS3 inh -0.08 and MT1-MMP reporter inactive.
`Cc1nn(Cc2c(Cl)cccc2Cl)c(C)c1NC(=O)c1cc(C(C)C)on1` gave Hsc70 3.5%, WNV NS2B-NS3 inh -0.34 and MT1-MMP reporter inactive.
For O=C(Nc1ccccc1F)NC1CCN(Cc2nnnn2Cc2ccc(F)cc2)CC1 the results were Hsc70 1.9%, WNV NS2B-NS3 inh -0.47 and MT1-MMP reporter inactive.
Screening O=C(NCCc1ccccc1)C1CCN(C(=O)c2sccc2-n2cccc2)CC1 returned Hsc70 4.3%, WNV NS2B-NS3 inh 0.24 and MT1-MMP reporter inactive.
Screening COc1ccc(OC)c(S(=O)(=O)N(C)CC(=O)Nc2ccc3c(c2)OCCO3)c1 returned Hsc70 0.3%, WNV NS2B-NS3 inh 0.4 and MT1-MMP reporter inactive.
Screening N#Cc1c(N)sc(=S)c2c1CCCCC2 returned Hsc70 25%, WNV NS2B-NS3 inh -0.74 and MT1-MMP reporter inactive.
O=C1CC(c2ccccc2)CC(O)=C1C=NCCN1CCN(C(=O)Nc2ccccc2)CC1 (stereo not given) was read as Hsc70 -7.4%, WNV NS2B-NS3 inh 0.29 and MT1-MMP reporter inactive.
Screening COC(=O)Nc1ncc(CN2CCC(c3ccccc3)CC2)s1 returned Hsc70 2.6% and MT1-MMP reporter inactive.
CN(C)C(=O)Cn1cnc2c(cnn2-c2ccccc2Cl)c1=O was read as Hsc70 3.2%, WNV NS2B-NS3 inh -0.46 and MT1-MMP reporter inactive.
`O=C(CSc1nccn1-c1cccc(Cl)c1)Nc1ccc2c(c1)OCCO2` gave Hsc70 3.2%, WNV NS2B-NS3 inh -1.3 and MT1-MMP reporter inactive.
Screening CCN(CC)S(=O)(=O)c1ccc(S(=O)(=O)N(CC(=O)Nc2ccccc2)CC2CCCO2)cc1 (stereo not given) returned Hsc70 7.0% and MT1-MMP reporter inactive.
Screening Cc1noc(C)c1C(=O)N1CCN(CCc2ccccc2)CC1 returned Hsc70 -2.2%, WNV NS2B-NS3 inh -0.83 and MT1-MMP reporter inactive.
Cc1coc(C)c1C(=O)CC1(O)C(=O)Nc2cc(Cl)cc(Cl)c21 (stereo not given) was read as Hsc70 -12%, WNV NS2B-NS3 inh 0.37 and MT1-MMP reporter inactive.
For CCOC(=O)c1c(C)oc2ccc(OCc3cc(C(=O)OC)oc3C)cc12 the results were Hsc70 0.7% and MT1-MMP reporter inactive.
`COc1cc(NC(=O)c2cc(OC)c(OC)c(OC)c2)c(OC)cc1NC(=O)CN1CCCCC1` gave Hsc70 0.7%, WNV NS2B-NS3 inh -0.29 and MT1-MMP reporter inactive.
Screening O=C(CSc1nnc2scc(-c3ccccc3)n12)Nc1nsc(-c2ccc(Cl)cc2)n1 returned Hsc70 5.2%, WNV NS2B-NS3 inh -0.22 and MT1-MMP reporter inactive.
Screening COc1cccc(N(C(=O)CNC(=O)c2ccco2)C(C(=O)NC2CCCCC2)c2ccncc2)c1 (stereo not given) returned Hsc70 -0.3%, WNV NS2B-NS3 inh -0.63 and MT1-MMP reporter inactive.
Screening Cn1c(=O)n(C)c2cc(C(=O)O)ccc21 returned Hsc70 -3.8%, WNV NS2B-NS3 inh -0.06 and MT1-MMP reporter inactive.
`Cn1c2c(c(=O)n(C)c1=O)C(c1ccc(Br)cc1)Nc1ccccc1O2` (stereo not given) gave Hsc70 -4.6%, WNV NS2B-NS3 inh -0.33 and MT1-MMP reporter inactive.
`COc1ccccc1-c1coc2c(CN3CCN(CCO)CC3)c(O)ccc2c1=O` gave Hsc70 -1.9%, WNV NS2B-NS3 inh -0.19 and MT1-MMP reporter inactive.
`Cc1nn(Cc2ccccc2Cl)c2sc(C(=O)NCc3ccc4c(c3)OCO4)cc12` gave Hsc70 -11% and MT1-MMP reporter inactive.
Screening C=CCN1C(c2ccccc2)=CS/C1=C(\C#N)c1nnc2n1CCCCC2 returned Hsc70 7.6%, WNV NS2B-NS3 inh -0.99 and MT1-MMP reporter inactive.
`CCCC[n+]1ccn(-c2nc3ccccc3nc2[N-]S(=O)(=O)c2ccc(C)cc2)c1` gave Hsc70 2.5% and MT1-MMP reporter inactive.
Cc1ccccc1NC(=O)c1cc(N)ccc1N1CCCCC1 was read as Hsc70 -0.1%, WNV NS2B-NS3 inh -1.2 and MT1-MMP reporter inactive.
For Cn1c(=O)cc(SCC(=O)N2CCCC2)c2cc(Cl)ccc21 the results were Hsc70 -2.1%, WNV NS2B-NS3 inh -0.36 and MT1-MMP reporter inactive.
CC(C)C(NC(=O)OCc1ccccc1)C(=O)OCC(=O)N1C(C)CCCC1C (stereo not given) was read as Hsc70 1.5%, WNV NS2B-NS3 inh 0.47 and MT1-MMP reporter inactive.
For COc1ccc(CCNC(=O)C2CC(=O)N(C3CCCC3)C2)cc1OC (stereo not given) the results were Hsc70 2.1%, WNV NS2B-NS3 inh 0.41 and MT1-MMP reporter inactive.
For CC(=O)Nc1ccc(-n2c(C)nc(=O)c(-c3ccccc3)c2C)cc1 the results were Hsc70 2.8%, WNV NS2B-NS3 inh -0.61 and MT1-MMP reporter inactive.
CC1CCC(C(C)C)C(OC(=O)COC(=O)c2cccn2C)C1 (stereo not given) was read as Hsc70 -2.6%, WNV NS2B-NS3 inh 0.09 and MT1-MMP reporter inactive.
`CCOC(=O)N1CCN(C(=O)COc2ccc(S(=O)(=O)NC(C)C)cc2)CC1` gave Hsc70 1.3%, WNV NS2B-NS3 inh -0.05 and MT1-MMP reporter inactive.
Screening Cc1nc(C2CC(=O)OC23CCCCC3)cs1 (stereo not given) returned Hsc70 -0.7%, WNV NS2B-NS3 inh -0.54 and MT1-MMP reporter inactive.
FC(F)(F)c1cc(-c2ccc(Cl)cc2)nc2ncnn12 was read as Hsc70 5.1% and MT1-MMP reporter inactive.
CCOC(=O)CC(=O)CSc1nc(N)c(C#N)c(-c2ccc(Cl)cc2)c1C#N was read as Hsc70 -3.6%, WNV NS2B-NS3 inh 0.02 and MT1-MMP reporter inactive.
Screening COc1ccc(CC(=O)c2ccccc2C(=O)O)cc1 returned Hsc70 -0.2%, WNV NS2B-NS3 inh 0.67 and MT1-MMP reporter inactive.
Cn1cc(Cl)c(C(=O)N2CCN(c3ncccn3)CC2)n1 was read as Hsc70 -6.7%, WNV NS2B-NS3 inh 0.0052 and MT1-MMP reporter inactive.
`CC1=C(C(N)=O)C(c2cccnc2)n2nc(-c3cccc(Cl)c3)nc2N1` (stereo not given) gave Hsc70 -3.0%, WNV NS2B-NS3 inh -1.2 and MT1-MMP reporter inactive.

The closing 5 entries of the section above lead into the next:
FC(F)(F)c1cc(-c2ccc(Cl)cc2)nc2ncnn12 was read as Hsc70 5.1% and MT1-MMP reporter inactive.
CCOC(=O)CC(=O)CSc1nc(N)c(C#N)c(-c2ccc(Cl)cc2)c1C#N was read as Hsc70 -3.6%, WNV NS2B-NS3 inh 0.02 and MT1-MMP reporter inactive.
Screening COc1ccc(CC(=O)c2ccccc2C(=O)O)cc1 returned Hsc70 -0.2%, WNV NS2B-NS3 inh 0.67 and MT1-MMP reporter inactive.
Cn1cc(Cl)c(C(=O)N2CCN(c3ncccn3)CC2)n1 was read as Hsc70 -6.7%, WNV NS2B-NS3 inh 0.0052 and MT1-MMP reporter inactive.
`CC1=C(C(N)=O)C(c2cccnc2)n2nc(-c3cccc(Cl)c3)nc2N1` (stereo not given) gave Hsc70 -3.0%, WNV NS2B-NS3 inh -1.2 and MT1-MMP reporter inactive.
For Cc1csc(N/N=C/c2ccc(O)c([N+](=O)[O-])c2)n1 the results were Hsc70 0.3% and MT1-MMP reporter inactive.
`CC1CN(CCCCOc2ccc(C(C)C)cc2)CC(C)O1` (stereo not given) gave Hsc70 -2.1% and MT1-MMP reporter inactive.
Screening CC(C)CC(OC(=O)c1cccs1)C(=O)NCC1CCCO1 (stereo not given) returned Hsc70 7.7%, WNV NS2B-NS3 inh 0.01 and MT1-MMP reporter inactive.
CC1(C)CC(=O)C2=C(C1)N(C1CCCCC1)C(=O)C2(O)C(F)(F)F (stereo not given) was read as Hsc70 5.3% and MT1-MMP reporter inactive.
`CC1=CCC2C(=O)N(c3cccc(C(=O)N(C)C4CCCCC4)c3)C(=O)C2C1` (stereo not given) gave Hsc70 -6.5%, WNV NS2B-NS3 inh -0.57 and MT1-MMP reporter inactive.
Screening CCCCNC(=O)Cc1c(O)c2ccccc2[nH]c1=O returned Hsc70 0.2% and MT1-MMP reporter inactive.
Screening O=C(NCCCN1CCOCC1)c1ccc(CS(=O)(=O)Cc2ccc(Cl)cc2)o1 returned Hsc70 2.6%, WNV NS2B-NS3 inh 0.53 and MT1-MMP reporter inactive.
Screening C/C(=C\c1cc(C(=O)O)c(C)o1)CO returned Hsc70 -8.0%, WNV NS2B-NS3 inh 1.4 and MT1-MMP reporter inactive.
For Cc1ccc(NC(=O)C2CCN(C(=O)NC3CCCCC3)CC2)cc1 the results were Hsc70 -0.2% and MT1-MMP reporter inactive.
`Cc1ccc(OCC(=O)N2CCN(C(=O)Cc3ccccc3)CC2)cc1` gave Hsc70 5.0%, WNV NS2B-NS3 inh 0.12 and MT1-MMP reporter inactive.
`Cc1ccc(C2=[N+]([O-])C3(CCCCC/C3=N\NC(N)=O)N(O)C2(C)C)o1` (stereo not given) gave Hsc70 0.7% and MT1-MMP reporter inactive.
Screening CCCCC(CC)C(=O)NCc1ccccc1OC (stereo not given) returned Hsc70 -12%, WNV NS2B-NS3 inh 0.03 and MT1-MMP reporter inactive.
COc1c(Cl)ccc(Cl)c1C(=O)OCC(=O)O was read as Hsc70 0.7%, WNV NS2B-NS3 inh 1.6 and MT1-MMP reporter inactive.
O=C1N=C(N2CCOCC2)SC1=C1CCCCC1 was read as Hsc70 7.2%, WNV NS2B-NS3 inh -0.6 and MT1-MMP reporter inactive.
`Cc1ccc(C2(C)NC(=O)N(Cc3c(C)noc3C)C2=O)cc1` (stereo not given) gave Hsc70 1.9%, WNV NS2B-NS3 inh 1.2 and MT1-MMP reporter inactive.
`Cc1ccc(SCC(=O)Nc2ccccc2C(=O)O)cc1` gave Hsc70 1.2% and MT1-MMP reporter inactive.
O=C(CCn1c(=O)sc2ccccc21)NCc1ccc2c(c1)OCO2 was read as Hsc70 3.7%, WNV NS2B-NS3 inh -0.78 and MT1-MMP reporter inactive.
CCOC(=O)c1oc2ccc(Br)cc2c1NC(=O)CN1CCN(C)CC1 was read as Hsc70 3.6%, WNV NS2B-NS3 inh -0.65 and MT1-MMP reporter inactive.
For Cc1ccc(OCCCC(=O)Nc2nccs2)cc1 the results were Hsc70 -6.0% and MT1-MMP reporter inactive.
Screening O=c1c2c(nc3cc(-c4ccccc4)[nH]n13)CCC2 returned Hsc70 4.2%, WNV NS2B-NS3 inh -1.1 and MT1-MMP reporter inactive.

A draw from above in order of length of the SMILES, rising.
`Cc1ccc(SCC(=O)Nc2ccccc2C(=O)O)cc1` gave Hsc70 1.2% and MT1-MMP reporter inactive.
`CC1CN(CCCCOc2ccc(C(C)C)cc2)CC(C)O1` (stereo not given) gave Hsc70 -2.1% and MT1-MMP reporter inactive.
Screening O=C(NCCCN1CCOCC1)c1ccc(CS(=O)(=O)Cc2ccc(Cl)cc2)o1 returned Hsc70 2.6%, WNV NS2B-NS3 inh 0.53 and MT1-MMP reporter inactive.

Other structures follow:
COC(=O)c1ccccc1NC(=O)CSc1nnc(-c2cccnc2)n1C was read as Hsc70 5.5% and MT1-MMP reporter inactive.
CCOc1ccc(N(Cc2cc3cc(OC)ccc3[nH]c2=O)S(C)(=O)=O)cc1 was read as Hsc70 2.4%, WNV NS2B-NS3 inh 0.2 and MT1-MMP reporter inactive.
`Clc1ccc(-n2ncc3c(NCc4ccc5c(c4)OCO5)ncnc32)cc1` gave Hsc70 -1.8%, WNV NS2B-NS3 inh 0.24 and MT1-MMP reporter inactive.
`CCOC(=O)c1c(C)n(C)c2ccc(OC)c(NC(=O)CN3CCN(C(=O)c4ccco4)CC3)c12` gave Hsc70 7.2%, WNV NS2B-NS3 inh 0.68 and MT1-MMP reporter inactive.
Screening CCOC(=O)CN1Cc2cccc(C(=O)O)c2C1=O returned Hsc70 3.5%, WNV NS2B-NS3 inh 0.24 and MT1-MMP reporter inactive.
For Cc1ccc(S(=O)(=O)NC(CC(=O)N2CCOCC2)c2ccco2)cc1 (stereo not given) the results were Hsc70 0.6%, WNV NS2B-NS3 inh 0.83 and MT1-MMP reporter inactive.
For CCOC(=O)c1ccc(NC(=O)N(CC)CC)cc1 the results were Hsc70 3.8%, WNV NS2B-NS3 inh 0.32 and MT1-MMP reporter inactive.
